A1 inh = inhibitors of the anti-apoptotic protein A1, read as caspase activation; MEF A1-2A-BIM cells, Caspase-Glo 3/7 luminescence, 3 h; percent of clofoctol response, vehicle zero; caspase activation, % (test concentration not listed); hit rate 0.066% among 330,000;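 active means over half of replicate activation scores above 10%, or exactly half above 10 with the replicate mean above 10; inconclusive means replicate mean below 10 yet half the replicates above 10; inactive means over half of replicates below 10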;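 further: wells of about 30 µL received 50 nL stock; many hits fall short of the cut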
HNF4A DNA FP = change in binding of human HNF4 alpha to DNA. HNF4a-FITC DNA binding, fluorescence polarization, 1 h. activity change, % at 10 µM. hit rate 0.3% among 360,000. AID 1224865; in the data active means activity change above about 30%, passing the limit was not always enough;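 further: controls were the assay level and a saturating level of protein; the project sought stronger binding though the title names inhibitors; some compounds called inactive have numbers as strong as hits; positive values seem to mean higher polarization but the record does not say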
Vif A3G = inhibitors of Vif binding to APOBEC3G peptide, primary screen, biochemical, TR-FRET, GST-Vif 1-94, biotin-A3G peptide, dose response retest (AID 1117319); inhibition, %, or IC50 in µM where a hit was titrated; TR-FRET GST-Vif / biotin-A3G peptide binding; higher % means a stronger effect; test concentration not given here; strong numbers were not always called active; hit rate 0.57% among 260,000;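 active means above the screen mean plus three standard deviations and confirmed in dose response; inconclusive means results disagree or hit not tested in dose response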;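 further: Vif residues 1-94 fused to GST binding biotinylated APOBEC3G peptide 110-148; 0% = full assay without inhibitor and 100% = GST in place of GST-Vif; retest series ran down from 100 µM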
B2AR ag = agonists of human beta-2 adrenergic receptor inducing internalization. hit rate 0.43% among 340,000. P07550. Am2.2-beta2AR cells, FAP receptor internalization, flow cytometry; reference of the scale not given here. response, % (concentration not given with the values);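 active means response above a set limit, near 3 SD of response in nonfluorescent compounds, cut at about 42% in these data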;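 further: stock transfer was 100 nL into about 11 µL; a reference agonist was the positive control; negative values mostly stem from fluorescent compounds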
E coli growth = E. coli growth inhibition. Escherichia coli growth, OD600, 23 h; hits give low values. OD600 absorbance (test concentration not listed). hit rate 0.21% among 330,000. AID 1053175;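 active means OD600 absorbance below the run mean of sample wells minus 3.6 SD, in any replicate, cut at about 0.56 in these data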;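 further: stock transfer was 300 nL into about 60 µL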
LANA-H2B inh = blocks KSHV LANA binding to histone H2A/H2B; cell-free LANA-H2A/H2B peptide, fluorescence polarization; inhibition, % (no concentration beside the values); hit rate 0.6% among 320,000; AID 2629; in the data active means inhibition mostly above about 10%, no sharp cut-off; inactive means mostly below about 6.7%;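 further: stock transfer was 7.5 nL into about 10 µL; 0% = median of vehicle wells and 100% = median of positive control wells; one replicate is shown; the record names a cut of 25% in any replicate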
Target sequence (Q9QR71 whole entry, looked up): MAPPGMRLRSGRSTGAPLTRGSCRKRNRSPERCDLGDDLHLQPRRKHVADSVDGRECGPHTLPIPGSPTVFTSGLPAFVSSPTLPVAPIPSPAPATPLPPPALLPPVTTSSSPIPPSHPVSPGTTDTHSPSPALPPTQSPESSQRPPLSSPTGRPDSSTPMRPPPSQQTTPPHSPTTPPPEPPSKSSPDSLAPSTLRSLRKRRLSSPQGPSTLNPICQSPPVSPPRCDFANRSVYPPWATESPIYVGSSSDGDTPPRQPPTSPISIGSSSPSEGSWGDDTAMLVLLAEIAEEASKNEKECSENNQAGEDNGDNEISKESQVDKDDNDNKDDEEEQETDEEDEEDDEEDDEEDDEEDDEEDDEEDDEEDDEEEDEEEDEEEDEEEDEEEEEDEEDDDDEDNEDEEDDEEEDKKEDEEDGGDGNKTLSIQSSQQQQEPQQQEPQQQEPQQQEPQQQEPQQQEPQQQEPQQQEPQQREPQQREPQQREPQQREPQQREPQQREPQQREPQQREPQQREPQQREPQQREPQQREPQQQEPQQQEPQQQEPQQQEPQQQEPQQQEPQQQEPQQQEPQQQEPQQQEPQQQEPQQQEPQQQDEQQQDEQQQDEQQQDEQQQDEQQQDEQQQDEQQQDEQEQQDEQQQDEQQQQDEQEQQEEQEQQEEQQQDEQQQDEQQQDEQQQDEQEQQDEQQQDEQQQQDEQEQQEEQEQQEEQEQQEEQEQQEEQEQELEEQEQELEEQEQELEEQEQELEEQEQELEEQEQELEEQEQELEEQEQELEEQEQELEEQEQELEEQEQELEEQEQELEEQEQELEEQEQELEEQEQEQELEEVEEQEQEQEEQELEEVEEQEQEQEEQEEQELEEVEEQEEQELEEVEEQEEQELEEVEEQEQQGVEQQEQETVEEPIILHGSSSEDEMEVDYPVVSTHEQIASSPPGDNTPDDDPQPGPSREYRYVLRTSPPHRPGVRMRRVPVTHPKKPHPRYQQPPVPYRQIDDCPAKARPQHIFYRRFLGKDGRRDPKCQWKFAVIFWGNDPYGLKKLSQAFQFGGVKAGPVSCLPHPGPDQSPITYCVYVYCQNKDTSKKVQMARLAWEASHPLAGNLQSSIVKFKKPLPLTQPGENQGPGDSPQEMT
UCH37 inh = inhibitors of human deubiquitinating enzyme UCH37; Q9Y5K5; hit rate 0.33% among 330,000; inhibition, % (no concentration beside the values); purified proteasome/UCH37, Ub-AMC cleavage fluorescence; AID 588478;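 active means mean of two replicates above 20%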;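 further: 0% = compound-free wells with enzyme and 100% = wells lacking proteasome; stock transfer was 100 nL into about 20 µL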
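Assay system: Proteasome-bound UCH37. Buffer or medium: pH 7.4 Tris-HCl (50 mM) with ovalbumin, ATP-MgCl2, DTT. Incubation: 30 min preincubation with enzyme, 25 min cleavage at room temperature. Measured by: fluorescence, ex 355 nm, em 460 nm. Read-out basis: percent inhibition. Control set: wells without proteasome as full block, compound-free enzyme plus substrate as uninhibited.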
The depositor's hits bear a star; ? = inconclusive; · = no result given; + = active, no number; & = joins results of further samples.

The first two records (preview)
Fields: UCH37 inh, E coli growth, A1 inh, B2AR ag, HNF4A DNA FP, Vif A3G, LANA-H2B inh
> Cc1ccc(N2CCN(S(=O)(=O)N(C)C)CC2)c(C)c1
→ 0.9, 0.72, -0.7, 8, -0.3, ·, -0.7
> COc1ccc(OC)c(S(=O)(=O)NC2CCCCC2)c1
→ 1.5, 0.71, ·, 1, -0.7, -1%, ·

This part in full, previewed entries included:
Fields: UCH37 inh, E coli growth, A1 inh, B2AR ag, HNF4A DNA FP, Vif A3G, LANA-H2B inh
> Cc1ccc(N2CCN(S(=O)(=O)N(C)C)CC2)c(C)c1
→ 0.9, 0.72, -0.7, 8, -0.3, ·, -0.7
> COc1ccc(OC)c(S(=O)(=O)NC2CCCCC2)c1
→ 1.5, 0.71, ·, 1, -0.7, -1%, ·
> COC(=O)c1cccc(NC(=S)Nc2cccc(Cl)c2Cl)c1
→ 3.9, 0.66, -0.1, 3, -0.6, 4%, 0.4
> Clc1ccccc1OCc1nc(-c2ccccn2)no1
→ 2.7, 0.66, -11, -4, 1.1, 6%, -4.5
> CCOc1ccccc1N1CCN(C(=O)c2c(C)noc2C)CC1
→ 3.4, 0.73, -0.4, 8, -5.5, 6%, -3.0
> CN(C)S(=O)(=O)c1ccc(N2CCCC2)c(C(=O)NNC(=O)COc2ccccc2Cl)c1
→ 2.1, 0.68, 1.6, -10, -3.6, -5%, -6.1
> CCCCNC(=O)CSc1nc2ccc(NC(=O)CSc3nnc(N)s3)cc2s1
→ 2.7, 0.64, -1.2, -2, 0.6, ·, 0.6
> CCOc1ccc(CC(=O)C2C(=O)CCCC2=O)cc1OCC
→ 3.0, 0.76, -0.1, -6, -1.0, 14%, -6.2
> NC(=O)c1nsc(C(=O)N(CC(=O)NC2CCCCC2)c2cccc(F)c2)c1N
→ -16, 0.68, 0.6, -9, 1.0, ·, 3.5
> CCCCN(C(=O)c1ccc(-c2ccc(Cl)cc2)o1)c1c(N)n(CCCC)c(=O)[nH]c1=O
→ -21, 0.64, -0.6, 7, 7.9, -4%, ·
> O=C(COc1ccccc1[N+](=O)[O-])N/N=C/c1ccccn1
→ ·, ·, 1.0, -10, -0.8, ·, -3.7
> Cc1cc(C)cc(NC(=O)CCNS(=O)(=O)c2cc(Br)cnc2N)c1
→ 0.7, 0.7, -0.3, 12, -2.0, -19%, -0.8
> COc1ccccc1/C=C/C(=O)OCC(=O)c1cc(C)n(C)c1C
→ -7.0, 0.69, 0.6, 10, -1.1, -10%, +
> Oc1ccc(/C=N/n2cnn(Cc3ccccc3Cl)c2=S)c(O)c1
→ ·, ·, 0.1, 4, -1.6, -1%, -0.9
> CN(C)c1nc(OCc2ccccc2)c2ncc(=O)[nH]c2n1
→ -173, 0.67, 2.6, 1, 1.2, ·, -1.2

Fields: UCH37 inh, E coli growth, A1 inh, B2AR ag, HNF4A DNA FP, Vif A3G, LANA-H2B inh
> Oc1cc(CNCc2ccccc2)c(O)cc1CNCc1ccccc1
→ 3.0, 0.65, ·, 8, -19, -3%, ·
> COc1ccc(C2C3C(=O)N(Cc4ccccc4)C(=O)C3ON2c2ccccc2)c(OC)c1OC (stereo unspecified)
→ 2.0, 0.76, -0.2, -3, 0.1, 5%, -3.2
> Oc1cc(-n2cccn2)c(O)cc1-n1cccn1
→ -2.4, 0.66, -0.6, 4, -2.9, 25%, 0.6
> Cc1cc(C)cc(N(CC(=O)N/N=C/c2ccncc2)S(=O)(=O)c2ccccc2)c1
→ ·, ·, 1.3, -4, -6.3, ?, -0.1
> Cc1cc(NC(=O)COc2ccccc2)n(-c2ccccc2)n1
→ -2.6, 0.69, 0.6, 5, 0.4, 0%, -1.6
> CC(C)(C)c1csc(NC(=O)Cc2cccs2)n1
→ 1.3, 0.65, -0.3, -2, -2.4, ?, -0.6
> COc1ccc2[nH]cc(CCN3C(=O)c4ccc(C(=O)O)cc4C3=O)c2c1
→ -3.9, 0.69, 1.1, -1, 0.2, -2%, 3.8
> COc1cc([N+](=O)[O-])cc(/C=N/NC(=O)CSc2ccccn2)c1O
→ ·, ·, -0.6, -7, -0.7, 9%, 2.7
> N#CC1(NC(=O)Cn2cc(C(F)(F)F)ccc2=O)CCCC1
→ 4.7, 0.67, 0.7, 2, -5.5, -3%, 8.4
> O=C(COc1cc(F)ccc1[N+](=O)[O-])N1N=C(c2cccs2)CC1c1ccco1 (stereo unspecified)
→ -1.8, 0.68, 0.2, -7, 1.1, ·, -0.9
> N#CC1=C(N)Oc2n[nH]c(-c3cccnc3)c2C1c1cc(F)ccc1F (stereo unspecified)
→ 4.0, 0.71, -0.1, -5, 1.4, -10%, 0.7
> CCn1c(SCC(=O)N/N=C/c2ccc(O)c(OC)c2)nc2ccccc21
→ ·, ·, 1.0, -3, 0.9, -7%, 2.0
> COc1ccc(C(=O)Nc2ccc(S(=O)(=O)N3CCCCC3)cc2)cc1
→ -1.7, 0.72, 0.4, 2, 1.2, -7%, 3.1
> CC(C)N(C(=O)COC(=O)CCC(=O)c1cccs1)c1ccccc1
→ 2.3, 0.61, 0.2, 6, 2.1, ·, -5.9
> CCN(CC)S(=O)(=O)c1cc(NC(=O)COC(=O)CCC(=O)c2ccc(F)cc2)ccc1C
→ 7.7, 0.69, 0.4, -4, -2.7, 17%, -3.8

Fields: UCH37 inh, E coli growth, A1 inh, B2AR ag, HNF4A DNA FP, Vif A3G, LANA-H2B inh
> Cc1c(Cl)cccc1NC(=S)NCCN1CCOCC1
→ 2.3, 0.69, 0.3, 1, -1.5, 0%, -1.2
> COc1ccc(CNC(=O)COC(=O)CNC(=O)c2sc3ccccc3c2Cl)cc1OC
→ 2.9, 0.67, 0.6, 7, -0.6, -3%, -0.4
> CCOc1cc(C(=S)N2CCCC2)ccc1OC(=O)Cc1ccc(F)cc1
→ 4.0, 0.69, -0.9, 5, -0.3, 6%, 0.1
> COc1ccc([N+](=O)[O-])cc1NC(=O)CCN1CCN(C)CC1
→ 1.7, 0.69, -1.5, -1, -3.2, 25%, 1.6
> CC(C)CNC(=O)c1ccccc1-c1ccccc1C(=O)O
→ 1.1, 0.68, 1.2, 0, 10, 2%, 1.6
> COc1cc(C)ccc1OCCOc1c(Cl)cc(Cl)cc1Cl
→ 0.7, 0.71, 0.7, -5, -0.6, 0%, 7.1
> CCn1cc(C(=O)OCC(=O)c2ccccc2)c(=O)c2ccc(C)nc21
→ 2.1, 0.63, ·, 3, 1.1, -8%, ·
> Cc1nc2sccn2c1P(c1c(C)nc2sccn12)c1c(C)nc2sccn12
→ 2.8, 0.71, ·, -4, -0.8, 29%, ·
> COc1ccccc1NC(=S)N1CCC(NC(=O)NC23CC4CC(CC(C4)C2)C3)CC1
→ 1.5, 0.61, -1.1, 5, -0.1, 3%, 4.2
> O=C(COC(=O)C1CC2C=CC1C2)NCc1ccco1 (stereo unspecified)
→ 4.0, 0.67, 1.2, 1, -11, ?, -4.1
> COc1ccccc1CCNC(=O)c1cccc(S(=O)(=O)N2CCc3ccccc3C2)c1
→ 0.8, 0.65, 0.9, 4, 0.9, ·, 8.0
> Cc1ncsc1CCOC(=O)c1cccc([N+](=O)[O-])c1
→ 2.5&3.0, 0.71&0.65, -0.3&0.5, 1&4, -3.1&-0.2, 12%, 0.1&6.8
> S=c1[nH]c2ccccc2n1Cc1ccccc1
→ 1.4, 0.63, 1.1, 0, -2.6, ·, -2.2
> CCOC(=O)C1=C(C)OC(N)=C(C#N)C1c1cc2c(cc1[N+](=O)[O-])OCO2 (stereo unspecified)
→ -15, 0.72, 0.4, 0, -2.1, ?, -2.2
> CCOC(=O)/C(=C\Nc1ccc(OC(F)(F)F)cc1)Sc1ncc(C(F)(F)F)cc1Cl
→ 5.9, 0.73, -0.4, 4, -0.5, 3%, -2.6

Fields: UCH37 inh, E coli growth, A1 inh, B2AR ag, HNF4A DNA FP, Vif A3G, LANA-H2B inh
> Cc1ccc(N2C(=O)CSC2c2c(F)cccc2Cl)cc1 (stereo unspecified)
→ 6.3, 0.68, 0.4, 4, -2.0, -4%, -9.6
> COc1ccc(-n2c(SCC(=O)N3CCCCC3)nnc2-c2cccnc2)cc1
→ 1.1, 0.68, -0.3, -6, -3.4, 3%, 1.4
> N#Cc1cccnc1N1CCN(C(=O)c2cccc3c2C(=O)c2ccc(-c4ccc(F)cc4OCc4ccccc4)cc2S3(=O)=O)CC1
→ 1.2, 0.74, 0.1, 13, -0.8, ·, -12
> CCN1C(=O)N[C@@H](CCc2ccccc2)[C@H](C(=O)OC)[C@H]1C
→ 1.2, ·, -0.5, -12, 0.3, ·, -1.1
> COC(=O)Nc1sc2c(c1C(=O)N1CCOCC1)CCC(C)C2 (stereo unspecified)
→ 2.1, 0.68, -0.2, -8, 18, 2%, 2.8
> COC(=O)CN(C#N)c1nc(C)cc(C)n1
→ 1.7, 0.69, -0.3, 14, -0.9, 13%, 1.3
> CCOc1ccc(N/N=C(/C#N)C(N)=O)cc1
→ ·, ·, -4.7, 0, -1.9, -1%, -5.8
> CCOC(=O)c1c(C)oc2ccc(OC(=O)COc3c(F)c(F)c(F)c(F)c3F)cc12
→ 4.4, 0.71, -0.7, 3, -3.9, 3%, -7.6
> CC(C)(C)OC(=O)C[C@H]1C/C=C\C[C@@H](CC(=O)N[C@H](CO)Cc2ccccc2)C(=O)N2CCC[C@H]2COC1=O
→ 9.8, ·, 0.7, 2, -0.9, ·, -0.1
> O=c1nccc(SCc2ccc(Cl)cc2Cl)[nH]1
→ 0.4, 0.62, -0.3, -8, 1.9, -7%, 2.2
> COc1ccc(CNS(=O)(=O)c2ccc(S(=O)(=O)N3CCCCC3)cc2)cc1
→ 1.0, 0.62, -0.8, -6, 0.2, ·, -1.9
> COc1ccc(NC(=O)/C(=C\c2cccs2)NC(=O)c2ccco2)cc1
→ 9.3, 0.71, 0.3, -11, 5.7, 13%, -2.5
> Cc1ccc(/C=N/NC(=O)c2c[nH]c3ccccc23)o1
→ ·, ·, 0.3, 8, -3.1, 4%, 1.3
> CCOc1ccccc1NC(=O)CSc1nc2[nH]ncc2c(=O)[nH]1
→ 4.9, 0.62, 0.0, 1, 3.7, -1%, 0.9
> Cn1c(/N=C/c2cccs2)nc2ccccc21
→ ·, ·, 0.4, 2, 3.4, 28%, -1.9

Fields: UCH37 inh, E coli growth, A1 inh, B2AR ag, HNF4A DNA FP, Vif A3G, LANA-H2B inh
> Cc1nc(-c2ccc(F)cc2)c(CC(=O)N2CCN(S(=O)(=O)c3cccc([N+](=O)[O-])c3)CC2)s1
→ 4.5, 0.69, ·, 12, 24, 2%, ·
> COc1ccccc1CNC(=O)c1cc(-c2ccccc2)nn1CC1CC(c2cccc([N+](=O)[O-])c2)=NO1 (stereo unspecified)
→ 0.0, 0.76, 2.5, -3, -0.6, ·, -0.6
> COc1ccc(S(=O)(=O)N2CCOCC2)cc1NC(=O)CSc1ccccc1
→ -0.5, 0.69, 0.3, -6, 4.5, ·, 1.9
> CC1Nc2ncnc(N3CCN(c4ccccn4)CC3)c2N(Cc2ccccc2)C1=O (stereo unspecified)
→ 1.6, 0.73, 0.2, -4, 3.7, ·, 0.3
> Cc1cc(C(F)(F)F)n2nc(-c3cnn(C)c3C(F)(F)F)c(Br)c2n1
→ 5.9, 0.7, 0.0, 1, 2.2, -1%, -2.5
> CCc1ccc(NC(=S)N(CCN(C)C)C(C)c2ccncc2)cc1 (stereo unspecified)
→ 1.4, 0.63, -0.1, 5, 1.0, 6%, 6.0
